RGS16-Gao HTS – modulates binding between human RGS16 and Galphao | binding response (% of control), % at 10 µM | O15492+P09471 | bead-based flow cytometry RGS16-Galphao binding, fluorescence; actives lie on both sides | actives 0.38% (n = 220,000) | AID 1441;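 active means below 25% or above 175%, edge rows of some plates excepted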;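 further: Galphao activated by GDP with aluminum fluoride before binding; 100% = wells without compound and 0% = beads without RGS; some results beyond the cut were filed as inactive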
Target sequence (O15492 whole entry, looked up): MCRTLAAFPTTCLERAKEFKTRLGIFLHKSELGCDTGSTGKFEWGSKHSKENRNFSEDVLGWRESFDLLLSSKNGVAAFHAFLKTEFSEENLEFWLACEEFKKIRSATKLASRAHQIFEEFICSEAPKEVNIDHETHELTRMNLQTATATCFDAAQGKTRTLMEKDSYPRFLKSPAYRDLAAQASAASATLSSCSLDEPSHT
Target sequence (P09471 whole entry, looked up): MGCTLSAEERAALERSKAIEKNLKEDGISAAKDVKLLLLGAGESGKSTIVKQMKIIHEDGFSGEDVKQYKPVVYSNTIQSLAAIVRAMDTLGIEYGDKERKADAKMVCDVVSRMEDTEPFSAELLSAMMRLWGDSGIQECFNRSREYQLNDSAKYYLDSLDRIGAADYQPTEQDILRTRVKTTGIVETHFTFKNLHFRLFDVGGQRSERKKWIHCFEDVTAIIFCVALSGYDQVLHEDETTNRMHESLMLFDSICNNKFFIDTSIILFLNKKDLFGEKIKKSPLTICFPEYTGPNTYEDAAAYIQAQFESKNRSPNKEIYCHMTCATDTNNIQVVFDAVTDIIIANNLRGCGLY
INS promoter inh – TRM-6 insulin promoter activity inhibition; TRM-6 cells (human fetal islet line), insulin promoter-eGFP reporter, imaging; reporter expression induced with tamoxifen; inhibition, % at 2 µM; actives 0.9% (n = 130,000); AID 1273;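 active means inhibition above the mean plus 3 SD, with well images judged a real hit on visual review, cut at about 60% in these data, passing the limit was not always enough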
HSV replic up – increases HSV replication in cells; HSV replication augmentation in cells, fold increase; maximum fold increase; actives 0.005% (n = 220,000); AID 1956;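 active means peak rise of 1.5-fold or more in the series; tested in PC3 cells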;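 further: first round at 10 µM; read as green reporter fluorescence; hits show the peak of a series up to 25 µM; 1 = signal of infected wells without compound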
GALR2 ag – agonists of human galanin receptor 2 (GALR2); GALR2-expressing cells, agonist activation read-out; actives 0.48% (n = 140,000); activation, %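 (tested at 5 µM)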;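 active means above mean plus 3 SD of all compounds, about 5% in these data, not always enough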;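 further: 0% = vehicle buffer wells and 100% = reference agonist at full effect; tested in CHO reporter cells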
Target sequence (O43603 whole entry, looked up): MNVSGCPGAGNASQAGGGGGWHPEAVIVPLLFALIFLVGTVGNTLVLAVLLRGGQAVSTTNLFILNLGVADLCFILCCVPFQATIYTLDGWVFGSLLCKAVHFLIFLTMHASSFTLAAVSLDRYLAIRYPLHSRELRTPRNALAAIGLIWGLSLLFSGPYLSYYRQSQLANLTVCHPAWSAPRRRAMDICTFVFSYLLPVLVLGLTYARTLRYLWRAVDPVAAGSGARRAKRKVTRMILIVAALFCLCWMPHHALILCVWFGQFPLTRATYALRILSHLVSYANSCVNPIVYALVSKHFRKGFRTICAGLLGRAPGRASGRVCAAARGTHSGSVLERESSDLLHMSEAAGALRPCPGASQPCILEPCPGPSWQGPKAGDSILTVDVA
PKD1 inh – blocks activity of human protein kinase D1 | Q15139 | PKD1 kinase fluorescence polarization assay | inhibition, %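 (about 10 µM by stock and volumes)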 | actives 0.056% (n = 200,000) | AID 797;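 active means inhibition of 50% or more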;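 further: controls were vehicle for no effect and a reference inhibitor for full effect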
INS promoter inh cell count – also measured in INS promoter inh; calls as there; normalized cell count, %; measured here: cell count, toxicity; reference of the scale not given here;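 cells exposed to compound for 48 h; stained nuclei by imaging scaled within each plate; lower means fewer cells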
HSV replic up primary fold – second read-out of HSV replic up, no call of its own (marks repeat the call); fold increase; compound at 10 µM; measured here: primary screen fold increase 10 uM; tested in PC3 cells;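 GFP signal in the first replicate; 1 = infected wells without compound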
Active calls of the source: *; i = inactive; . = no result given; & = joins results of further samples; [ ] = another dose, or the depositor's remark.

item	structure	HSV replic up	INS promoter inh cell count	RGS16-Gao HTS	PKD1 inh	GALR2 ag	HSV replic up primary fold	INS promoter inh
1	COc1ccc(S(=O)(=O)N(C)C)cc1NC(=O)COC(=O)CC1CCCC1	i	101	105	2	.	1	-28
2	CN(CC1CCOCC1)C(=O)CC1C(=O)NCCN1C/C=C/c1ccccc1 (stereo not drawn)	i	.	96	3	.	0.9	.
3	Cc1ccc(C(=O)NCc2nnc(SCC(=O)Nc3sc4c(c3C#N)CCCC4)n2C)cc1	i	58	106	0	-2.6	0.95	-306
4	CCC(CC)C(=O)OCC(=O)Nc1cccc([N+](=O)[O-])c1	i	130	98	-1	.	1.1	16
5	Cc1ccc(OCC(=O)NCCO)cc1C	i	141	95	-14	-1.7	0.79	32
6	O=C(Oc1cccc(-n2cnnn2)c1)c1ccco1	i	100	105	6	0.6	0.86	56
7	CCCCN=C1NC(=O)C(CC(=O)Nc2ccc(Cl)cc2)S1 (stereo not drawn)	i	134	78	-4	0.3	1	4
8	COc1ccc(S(=O)(=O)N2CCC(C(=O)N3CCc4ccccc4C3)CC2)cc1OC	i	157	99	-2	-1.4	0.82	-9
9	COc1ccc(S(=O)(=O)NCC2CCCN(C(=O)c3cccs3)C2)cc1 (stereo not drawn)	i	.	101	-5	.	0.98	.
10	C/C(=N\NC(=O)c1ccccc1F)c1ccc2c(c1)Nc1ccccc1S2	i	.	104	6	-0.8	0.94	.
11	COc1ccc(NC(=O)c2ccc(OC)cc2)cc1	i	110	93	-4	-2.1	0.89	19
12	CS(=O)(=O)N(CC(=O)NCc1ccccc1)Cc1ccc(Cl)cc1	i	100	104	-6	-4.1	1.1	-22
13	COc1ccc(C(=O)Nc2cccnc2)cc1OC	i	140	.	-4	-1.9	0.92	42
14	CC(C)Cc1nc2sc3c(c2c(=O)n1N)CC(C)(C)OC3	i	.	111	.	.	1	.
15	CC(C)(Oc1ccc(Cl)cc1)C(=O)N(Cc1ccccc1)c1ccccn1	i	96	101	-1	-0.7	1	-57
16	O=C(NCc1ccccc1)C(=O)NCC(c1ccco1)N1CCOCC1 (stereo not drawn)	i	.	97	-1	-1.3	1	.
17	Cc1cc(C(=O)NCc2ccc3c(c2)OCO3)c(C)o1	i	.	105	.	.	1	.
18	COCCN1C(=O)CC(NNC(=O)c2ccc(S(=O)(=O)N3CCCC3)cc2)C1=O (stereo not drawn)	i	.	100	-1	.	0.76	.
19	O=C(O)c1cn[nH]c1-n1cnnn1	i	135	100	-7	-1.8	0.63	-19
20	O=C1C2CC=C(Cl)CC2C(=O)N1CC1Cc2ccccc2CO1 (stereo not drawn)	i	.	40	-4	-1.4	0.84	.
21	CCc1ccc(OCC(=O)NNC(=O)c2cc3ccccc3o2)cc1	i	.	101	2	.	1	.
22	COc1ccc(Cl)cc1NC(=O)[C@@H]1CCCN1C(=O)c1cccs1	i	.	40	-1	-1.4	0.98	.
23	CCCCCCCCOC(=O)/C=C/c1c(C)[nH]c(=O)[nH]c1=O	i	127	110	3	0.6	0.81	-37
24	Cc1cccn2c(CNCCCn3ncc4ccccc43)c(C(=O)N3CCCCC3)nc12	i	82	111	-4	.	0.87	9
25	CN(C)c1ccc(NS(=O)(=O)c2cc(Cl)ccc2Cl)cc1	i	72	97	-5	-0.6	0.84	11

Pulled by compound from above (4):
item	structure	HSV replic up	INS promoter inh cell count	RGS16-Gao HTS	PKD1 inh	GALR2 ag	HSV replic up primary fold	INS promoter inh
11	COc1ccc(NC(=O)c2ccc(OC)cc2)cc1	i	110	93	-4	-2.1	0.89	19
13	COc1ccc(C(=O)Nc2cccnc2)cc1OC	i	140	.	-4	-1.9	0.92	42
18	COCCN1C(=O)CC(NNC(=O)c2ccc(S(=O)(=O)N3CCCC3)cc2)C1=O (stereo not drawn)	i	.	100	-1	.	0.76	.
8	COc1ccc(S(=O)(=O)N2CCC(C(=O)N3CCc4ccccc4C3)CC2)cc1OC	i	157	99	-2	-1.4	0.82	-9

(further entries)
item	structure	HSV replic up	INS promoter inh cell count	RGS16-Gao HTS	PKD1 inh	GALR2 ag	HSV replic up primary fold	INS promoter inh
26	O=C(c1cccs1)N(Cc1cccc(Cl)c1)C1CCS(=O)(=O)C1 (stereo not drawn)	i	96	105	1	-0.6	0.76	15
27	CC(C)OC(=O)CSc1nc(Cc2ccccc2)nc2ccccc12	i	96	116	1	.	0.97	-7
28	CCN(CCCNc1ncnc2nc[nH]c12)c1cccc(C)c1	i	.	105	-3	-1.8	0.73	.
29	Cc1nnc(N/N=C/c2ccccc2O)n1N	i	.	99	1	.	0.73	.
30	CCc1nn2c(=O)cc(N3CCN(c4cc(C)nc5ccccc45)CC3)nc2s1	i	84	105	-8	-1.2	0.92	29
31	O=C(O)c1cc(-c2cccs2)nn1-c1cccc(Cl)c1	i	.	95	5	.	1	.
32	CCOC(=O)c1sc(Nc2nc3c(F)cccc3s2)cc1C	i	122	12	-10	0.8	0.66	48
33	CC(=O)c1cnn(-c2nc3c(C)cccc3s2)c1C	i	44	99	1	-3.4	1	-10
34	COc1cc(NS(=O)(=O)c2ccc(NC(=O)/C(=C/c3ccccc3Cl)NC(=O)c3ccccc3)cc2)nc(OC)n1	i	75	95	-11	-0.4	0.98	-16
35	CC(C)Cc1cc(-c2ccco2)c(C#N)c(N)n1	i	160	100	-13	-1.9	0.91	61
36	O=C(O)/C=C\C(=O)Nc1ccccc1C(=O)N1CCN(c2ccc(Cl)cc2)CC1	i	29	103	-6	-2.4	0.99	-6
37	CCCCC(=O)Nc1cccc(NC(=S)NC(C)=O)c1	i	.	96	0	-0.9	0.89	.
38	C#CCOCCOCCOCCNc1nc(N2CCN(C(=O)[C@H](CCC(=O)O)n3cc(C(N)CO)nn3)CC2)nc(N2CCN(C(=O)[C@H](Cc3cc4ccccc4[nH]3)n3cc(C(N)[C@H](C)CC)nn3)CC2)n1 (stereo partly drawn)	i	.	105	-2	.	0.91	.
39	Cc1ccc(-c2c(C#N)c(N)n3c(nc4ccccc43)c2C#N)cc1	i	80	138	-1	1.8	0.94	-8
40	Cc1ccc(S(=O)(=O)Oc2ccc(/C=C(/NC(=O)c3ccccc3)C(=O)NCC(=O)O)cc2)cc1	i	.	105	-2	.	1.1	.
41	O=C(Nc1cccc(Cl)c1Cl)C1CCN(c2ncccn2)CC1	i	145	101	-12	-2.4	0.87	67
42	Cc1nc2ccccc2c(C)c1C(=O)c1ccc(F)cc1	i	.	105	-1	.	0.92	.
43	CCOC(=O)c1cc(C)n(Cc2ccccc2)c1C	i	.	98	7	-0.4	0.89	.
44	Cc1[nH]n(-c2ccc(Cl)cc2)c(=O)c1N=Nc1cccnc1	i	.	100	.	.	0.97	.
45	Cc1ccccc1NC(=S)N(CCc1c(C)[nH]c2ccc(F)cc12)Cc1ccncc1	i	170	110	1	.	0.83	-73
46	Cc1ccc(C(C)C)c(OCCN)c1	i	139	80	-9	-1.5	0.91	-15
47	N#C/C(=N\Nc1ccccc1Cl)C(=O)c1ccccc1	.	.	92	-14	-1.1	.	.
48	O=c1c(Cl)c(NCc2ccc(F)cc2Cl)cnn1C12CC3CC(CC(C3)C1)C2	i	.	111	-5	-1.2	1.1	.
49	CCC(C)OC(=O)C1C(c2ccccc2)C(C(=O)O)C1c1ccccc1 (stereo not drawn)	i	128	103	-13	-2.2	0.98	25
50	CC(C)NC(=O)/C(=C\c1cccc([N+](=O)[O-])c1)NC(=O)c1ccccc1	i	124	101	-14	-3.9	0.79	-34

Laid out differently: four of the compounds above
(40) Cc1ccc(S(=O)(=O)Oc2ccc(/C=C(/NC(=O)c3ccccc3)C(=O)NCC(=O)O)cc2)cc1
  HSV replic up: i
  INS promoter inh cell count: .
  RGS16-Gao HTS: 105
  PKD1 inh: -2
  GALR2 ag: .
  HSV replic up primary fold: 1.1
  INS promoter inh: .

(41) O=C(Nc1cccc(Cl)c1Cl)C1CCN(c2ncccn2)CC1
  HSV replic up: i
  INS promoter inh cell count: 145
  RGS16-Gao HTS: 101
  PKD1 inh: -12
  GALR2 ag: -2.4
  HSV replic up primary fold: 0.87
  INS promoter inh: 67

(42) Cc1nc2ccccc2c(C)c1C(=O)c1ccc(F)cc1
  HSV replic up: i
  INS promoter inh cell count: .
  RGS16-Gao HTS: 105
  PKD1 inh: -1
  GALR2 ag: .
  HSV replic up primary fold: 0.92
  INS promoter inh: .

(43) CCOC(=O)c1cc(C)n(Cc2ccccc2)c1C
  HSV replic up: i
  INS promoter inh cell count: .
  RGS16-Gao HTS: 98
  PKD1 inh: 7
  GALR2 ag: -0.4
  HSV replic up primary fold: 0.89
  INS promoter inh: .

Next part:
item	structure	HSV replic up	INS promoter inh cell count	RGS16-Gao HTS	PKD1 inh	GALR2 ag	HSV replic up primary fold	INS promoter inh
51	Cc1cccc(C)c1OCc1nc2ccccc2[nH]1	i	146	106	1	-0.6	0.77	58
52	CC1CCN(S(=O)(=O)c2ccc(S(=O)(=O)NCc3ccco3)cc2)CC1	i	112	99	-9	-1.2	0.69	-76
53	CCCCC1(CC(=O)OCC)C(=O)N(c2ccccc2)N(c2ccccc2)C1=O	i	69	34	1	-1.1	0.95	-23
54	O=C(CCn1cccc1)N1CCc2ccccc21	i	113	95	-15	-0.2	1	-3
55	O=C(CSc1nc2ccccc2c(=O)n1-c1ccc(F)cc1F)c1c[nH]c2ccccc12	i	105	105	-15	1.2	0.84	-36
56	O=C(Nc1cccc(-c2nc3ccccc3[nH]2)c1)c1ccc(C(=O)Nc2cccc(-c3nc4ccccc4[nH]3)c2)cc1	i	.	219*[activator]	.	.	1.1	.
57	COc1ccc(/C=N/NC(=O)c2c(C)nc3ccccn23)cc1[N+](=O)[O-]	i	.	105	.	.	0.97	.
58	C=CCn1c(SCn2nnc3ccccc3c2=O)nnc1-c1ccc(Br)cc1	i	72	102	-9	2.8	1.1	3
59	CCCC1=C(C(=O)OCC)C(c2cccs2)n2ncnc2N1 (stereo not drawn)	i	.	116	.	.	0.84	.
60	Cn1c(=O)n(CC(=O)O)c(=O)c2c1nc1n2CCS1	i	166	105&102	-11	2.0	0.95&0.94	-21
61	COc1cc2c(cc1OC)C(C)N(C(=O)Cn1ncc3c1-c1cc(C)ccc1OC3)CC2 (stereo not drawn)	i	.	90	-2	1.7	0.98	.
62	Cc1ccc2nc(SCCC#N)nc(C)c2c1	i	85	86	3	-3.4	0.9	33
63	c1ccc(CN2CCN(CCN3CCn4c3nc3ccccc34)CC2)cc1	i	61	98	-2	-0.9	1	0
64	Cc1ccc(SCc2cc(=O)[nH]c(N3CCOCC3)n2)cc1	i	206	99	11	-1.6	0.9	15
65	O=C(CN1CCN(c2ccccc2)CC1)N1N=CCC1c1ccccc1 (stereo not drawn)	i	82	102	-6	-0.8	0.97	3
66	COCC1CCCCN1Cc1cn[nH]c1-c1ccc(OC)cc1OC (stereo not drawn)	i	.	97	-4	.	1	.
67	Cc1ccc(/C=N/N2CCN(Cc3ccccc3)CC2)s1	i	58	100	4	-0.4	0.85	3
68	COc1c(C)cccc1C(=O)Nc1ccc(CN2CCOCC2)cc1	i	13	104	-8	0.3	0.89	-105
69	CCCCCn1c(SCCCC)nc2c1c(=O)[nH]c(=O)n2C	i	.	97	8	0.1	0.83	.
70	CCCCNC(=S)N(C)/N=C/c1ccc(F)cc1	i	74	108	3	0.0	1.1	0
71	COc1ccc(Nc2c(C)cccc2C)cc1	i	112	84	3	-2.5	1.1	-8
72	COc1ccc(C)cc1NC(=O)CSc1nnnn1Cc1ccccc1	i	134	88	-6	-0.5	0.79	-31
73	CC1(C)CC(NC(=O)CCc2ccccc2)CC(C)(C)N1	i	203	78	-3	-2.9	1.1	7
74	COc1cc2nc(-c3ccc(Br)o3)oc(=O)c2cc1OC	i	111	89	-9	-2.1	0.94	-138

Screens as filed in PubChem.
